Bioassay records as filed in PubChem BioAssay.
miR-21 FLuc: raises the signal of a miR-21 reporter. 340,000 tested, under 10 active. HeLa miR-21 FLuc reporter, luciferase, 48 h. Potency, µM (titrated, usually from 38.3 µM), inactives show at the highest dose reporter change, positive = more light. AID 2288; active = well fitted rising curve with a large enough effect; inconclusive = small, poorly fitted or top-dose-only effect; inactive = no such curve, though single readings can be large or run the other way;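 also: % of control where 0% means no effect; miR-21 action dims this reporter so a rising signal means less miR-21 action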
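Compounds were titrated across several concentrations (up to approximately 40 uM) and incubated 48 hours with HeLa miR-21-FLuc reporter cells (miR-21 target sequence downstream of FLuc, endogenous miR-21). Readout was firefly luciferase luminescence after lytic detection reagent.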
* hit, by the source's call; u = inconclusive.

Structure	miR-21 FLuc
COc1ccc(-c2noc(Cn3c(=O)c4ccccc4n(CC(=O)Nc4cccc(OC)c4)c3=O)n2)cc1	-13.9%
CCc1ccccc1Nc1nn2c(=O)c3ccc(C(=O)NC(C)c4ccccc4)cc3nc2s1 (stereo not drawn)	25.0%
Cc1cncn1CCc1nc2c3ccccc3nc(SCC(=O)Nc3ccc(F)cc3)n2n1	10.4%
CCCCCNC(=O)c1ccc2c(=O)n(CCc3ccccc3)c(=O)[nH]c2c1	2.3%
Cc1ccc(C)c(N2CCN(C(=O)CCc3nnc4n(C)c(=O)c5ccccc5n34)CC2)c1	0.3%
O=C(NC1CCCCC1)c1ccc2c(c1)N(Cc1cccc(Cl)c1)C(=O)c1ccccc1S2=O (stereo not drawn)	-12.4%
CCCN(CCC)S(=O)(=O)c1ccc(C(=O)N2CCn3c4c(c5cc(C)ccc53)CCCC42)cc1 (stereo not drawn)	-0.5%
CCC(=O)N1CCc2cc(S(=O)(=O)NC(CC(C)C)C(=O)NCc3ccc(C)cc3)ccc21 (stereo not drawn)	-5.7%
Cc1ccccc1-c1nn2c(=O)cc(CN3CCN(S(=O)(=O)c4ccc(Cl)cc4)CC3)nc2s1	-0.8%
CN(C)c1ccc(NC(=O)Cn2cc(S(=O)(=O)Cc3cccc(Cl)c3)c3ccccc32)cc1	-2.8%
O=C(NCCc1ccccc1)C1CCN(c2ncnc3c2nc2n3CCCCC2)CC1	-12.2%
CCOC(=O)c1cc(-c2ccccc2)n(-c2cccc(C(=O)Nc3ccc(OC)cc3)c2)c1C	8.8%
CC(=O)c1ccc(NC(=O)CSc2nc(-c3ccccc3F)nc3c2c(=O)n(C)c(=O)n3C)cc1	-1.0%
CCOC(=O)N1CCc2c(sc3c2c(=O)n(-c2ccc(Cl)cc2)c(=O)n3CC(=O)Nc2ccccc2)C1	-7.2%
CCn1nc(-c2ccccc2)c(-c2ccccc2)c(C(=O)Nc2ccccc2C(N)=O)c1=O	13.0%
N=c1n(CCO)c2ccccc2n1CCOc1ccc(F)cc1	-1.2%
COc1ccc(NC(=O)c2cnc3sc(N4CCOCC4)nn3c2=O)c(OC)c1	-3.4%
CCOc1cccc(C(=O)Nc2ccc3oc(-c4ccncc4)nc3c2)c1	4.3%
COc1ccc(NC(=O)CCc2nnc3n(CC(C)C)c(=O)c4ccccc4n23)cc1	2.4%
Cc1ccc(Cl)cc1N(C)C(=O)C1CCCN(c2ncnc3onc(-c4ccc(F)cc4)c23)C1 (stereo not drawn)	u

Four entries already listed, sorted by count of non-hydrogen atoms, highest first:
Structure	miR-21 FLuc
CCOC(=O)c1cc(-c2ccccc2)n(-c2cccc(C(=O)Nc3ccc(OC)cc3)c2)c1C	8.8%
O=C(NCCc1ccccc1)C1CCN(c2ncnc3c2nc2n3CCCCC2)CC1	-12.2%
COc1ccc(NC(=O)c2cnc3sc(N4CCOCC4)nn3c2=O)c(OC)c1	-3.4%
CCOc1cccc(C(=O)Nc2ccc3oc(-c4ccncc4)nc3c2)c1	4.3%

(listing goes on)
Structure	miR-21 FLuc
Cc1ccc(S(=O)(=O)c2nc(-c3ccccc3)oc2SCC(=O)NC2CCCCC2)cc1	2.9%
COc1ccc(-n2nc(C(=O)Nc3cc(C)ccn3)c3c4ccccc4n(C)c3c2=O)cc1	0.7%
Cc1ccc(Sc2c(C)nn(-c3ccccc3)c2OC(=O)CC(C)C)cc1	6.8%
Cc1ccc(C(=O)COC(=O)c2cc(-c3ccc(Cl)cc3)nc3ccccc23)cc1	-6.8%
CCOc1ccc(CCNC(=O)Cn2c(-c3cccs3)cc3ccccc32)cc1	-5.7%
COc1cc(NC(=O)CN2C(=O)COc3ccc(S(=O)(=O)NC4CCCC4)cc32)cc(OC)c1	-7.4%
Cc1ccc(CSc2ncc(Cl)c(C(=O)Nc3nnc(C)s3)n2)cc1	-8.2%
O=C(c1ccccc1)c1ccc2nc(Nc3cc(Cl)ccc3O)c3nncn3c2c1	-5.5%
Cc1nc2ccn(Cc3cccs3)c(=O)c2cc1C(=O)N1CCN(c2ccccc2)CC1	10.2%
COc1ccc(N2CCN(CCCNC(=O)c3c(C)nn(-c4ccc(F)cc4)c3-n3cccc3)CC2)cc1	17.2%
COc1ccc(Cn2c(=O)c3cccnc3n(CC(=O)Nc3c(C)cc(C)cc3C)c2=O)cc1	-0.7%
Cc1nn2c(=O)cc(COC(=O)COc3ccccc3C)nc2s1	-0.5%
CCOc1ccc(-c2cc(C(=O)NCCc3ccc(C)cc3)c3ccccc3n2)cc1	-17.7%
CCc1cnc2c(c1SCC(=O)NCc1ccccc1Cl)c(=O)n(C)c(=O)n2C	-3.9%
Cc1oc2c(c1C(=O)Nc1ccc(F)c(F)c1)C1=NCCN1C=N2	-1.2%
Cc1ccc(NC(=O)CNC(=O)Cn2c(C)cc3ccccc3c2=O)cc1F	3.5%
CCOC(=O)c1noc2ncnc(N(CCC(=O)OC)c3ccccc3)c12	-6.8%
Cc1cc(C)n(C(C)CC(=O)Nc2ccc(C)c(F)c2)n1 (stereo not drawn)	29.9%
O=C(Nc1ccc(S(=O)(=O)N2CCCCC2c2cccnc2)cc1)c1ccc(Br)cc1 (stereo not drawn)	u
Cc1ccc(CNC(=O)CCCCCn2c(=O)c3sccc3n(CC(=O)C(C)(C)C)c2=O)cc1	1.6%
COc1ccc(C(=O)NCCc2sc(-c3cccc(F)c3)nc2C)cc1	-6.1%
CCN(CC)c1cc(C)c2cc(NC(=O)c3ccc(F)cc3Cl)ccc2n1	15.9%
Cc1cc(C)c(NC(=O)Cc2csc(C)n2)c(Cl)c1	-18.9%
COc1cccc2sc(=NC(=O)c3ccc(S(=O)(=O)N4CCCCC4)cc3)n(C)c12	-1.5%
CCc1ccc(C(=O)c2c(N)c(-c3nc(-c4ccc5c(c4)OCO5)cs3)c3ccccn23)cc1	-3.1%
Cc1ccc(NC(=O)CC2Sc3ccc(C(F)(F)F)cc3NC2=O)cc1 (stereo not drawn)	-4.8%
Cc1ccccc1-c1nc2scc(CCNC(=O)C(=O)Nc3ccc(F)cc3F)n2n1	0.1%
CCN(CC)S(=O)(=O)c1ccc2c(c1)c(=O)c(C(=O)NCc1ccccc1Cl)cn2C	-18.6%
Cc1ccc(-c2noc(CNC(=O)c3ccc(C(C)(C)C)cc3)n2)cc1	-5.7%
COc1ccc(CNc2nc3c(-c4cccc(C)c4)nnn3c3ccccc23)cc1	2.0%

A run of entries of the results above, as a working copy:
Structure	miR-21 FLuc
COc1ccc(-c2noc(Cn3c(=O)c4ccccc4n(CC(=O)Nc4cccc(OC)c4)c3=O)n2)cc1	-13.9%
CCc1ccccc1Nc1nn2c(=O)c3ccc(C(=O)NC(C)c4ccccc4)cc3nc2s1 (stereo not drawn)	25.0%
Cc1cncn1CCc1nc2c3ccccc3nc(SCC(=O)Nc3ccc(F)cc3)n2n1	10.4%
CCCCCNC(=O)c1ccc2c(=O)n(CCc3ccccc3)c(=O)[nH]c2c1	2.3%
Cc1ccc(C)c(N2CCN(C(=O)CCc3nnc4n(C)c(=O)c5ccccc5n34)CC2)c1	0.3%

Remaining list, next part:
Structure	miR-21 FLuc
CCOc1ccc(NC(=O)N2CC=C(c3c[nH]c4ccccc34)CC2)cc1	18.9%
CCCCNC(=O)CSc1nc2cc3c(cc2c(=O)n1CCCCCC(=O)NCc1ccc2c(c1)OCO2)OCO3	-2.7%
Cc1ccc(C)c(N2CCN(C(=O)C3CCC(CNS(=O)(=O)c4ccc(Br)s4)CC3)CC2)c1 (stereo not drawn)	4.7%
CCN(CC)C(=O)c1sc2c(c1C)c(=O)n(-c1ccc(C)c(C)c1)c(=O)n2Cc1cc(=O)n2c(C)cccc2n1	-2.6%
Cc1cccc(CN2C(=O)c3ccccc3S(=O)(=O)c3ccc(C(=O)N4CCN(c5cc(C)ccc5C)CC4)cc32)c1	-2.6%
CC(C)Oc1ccc(CNC(=O)C2CCN(Cc3cc4ccccc4n3Cc3ccccc3)CC2)cc1	u
CNC(=O)C1CCC(Cn2c(=O)c3sccc3n(CC(=O)NCc3ccc(OC)cc3)c2=O)CC1 (stereo not drawn)	-8.9%
COc1ccc(Cn2c(C(=O)O)c(CNCCc3ccco3)c3ccc(C)cc32)cc1	-0.2%
COc1ccc(-n2nc(C(=O)N3CCN(c4cccc(C)c4)C(C)C3)c3c4ccccc4n(C)c3c2=O)cc1 (stereo not drawn)	-12.4%
Cc1ccc(NC(=O)c2cnn3c(C(F)F)cc(-c4ccccc4)nc23)cc1F	-4.7%
Cc1cccc(N2CCN(C(=O)C3CCCN(S(=O)(=O)c4ccc(Br)s4)C3)CC2)c1C (stereo not drawn)	u
COc1ccc(C(=O)Nc2ccc3nc(SCc4ccc(C)cc4)sc3c2)cc1	1.8%
CC(C)c1ccc(NC(=O)c2ccc(NC(=O)CCS(=O)(=O)c3cccs3)cc2)cc1	-24.5%
COC(=O)Cn1c(C2CC(=O)N(c3c(C)cccc3C)C2)nc2ccccc21 (stereo not drawn)	1.4%
Cc1ccc(-c2nc(S(=O)(=O)c3ccc(C)cc3)c(SCC(=O)NC3CCCCC3)o2)cc1	-0.1%
CCCCNC(=O)C1CCCN(Cc2nc(-c3ccc(Cl)cc3)oc2C)C1 (stereo not drawn)	-1.1%
Cc1ccc(C)c(Cn2c3ccccc3c3cnn(CC(=O)N4CCCCC4)c(=O)c32)c1	-1.2%
Cc1oc(-c2cccc(Cl)c2)nc1CSc1nnc(C)n2c1cc1occc12	6.6%
Cc1oc(-c2cccc(Cl)c2)nc1CN1CCC(C(=O)NCCc2ccc(Cl)cc2)CC1	3.0%
Cc1ccc(CNC(=O)C2CCN(S(=O)(=O)c3c(C)noc3/C=C/c3cccs3)CC2)cc1	-4.3%

Carrying on.
Compound	miR-21 FLuc
COc1ccc(NC(=O)c2sc3nc[nH]c(=O)c3c2C)cc1OC	-3.0%
CCc1ccc(NC(=O)CSc2ccc3nnc(CCNS(=O)(=O)c4ccc(OC)cc4)n3n2)cc1	-1.2%
CCc1cccc(C)c1Nc1c(-c2ccc(SC)cc2)nc2sccn12	-47.0%
Cc1cc(C(=O)NCc2cccc(Br)c2)c2c(C)nn(-c3ccccc3)c2n1	-5.7%
Cc1nn(CC(=O)NCc2ccc(OC(C)C)cc2)c(=O)c2c(C)n(-c3ccc(Cl)cc3)nc12	-1.7%
Cc1ccc(NC(=O)CSc2nccn2C2CCCC2)cc1	-0.9%
CCC(C)Nc1nc2c(c(=O)[nH]c(=O)n2C)n1Cc1ccc(F)cc1 (stereo not drawn)	-15.2%
COc1ccc(CCNc2oc(COc3cccc(C)c3)nc2C#N)cc1OC	-5.3%
Cc1ccc(CNC(=O)Cc2coc3cc(C)cc(C)c23)cc1	-9.6%
CCOC(=O)c1cnc2ccc(OC)cc2c1NCCc1ccccc1	u
COc1ccc(-c2nc(C)c(CCNC(=O)C(=O)Nc3c(C)cccc3C)s2)cc1OC	-19.3%
COc1cccc(N2CCN(C(=O)c3ccc(NC(=O)c4nsc5ccccc45)cc3)CC2)c1	-12.6%
CCOC(=O)c1c(C)[nH]c(C)c1S(=O)(=O)NCC(=O)Nc1cccc(Cl)c1	2.0%
COC(=O)c1ccc(-c2nc3cc(NC(C)=O)ccc3o2)cc1	-20.3%
COc1ccccc1NC(=O)CN1C(=O)c2ccccc2Sc2ccc(C(=O)N3CCCC3)cc21	-6.0%
CCOC(=O)c1noc2ncnc(Nc3ccc(C)c(F)c3)c12	-12.7%
CCOC(=O)CNC(=O)Nc1cc(C(=O)NCc2cccc(F)c2)ccc1N1CCCC1	-5.5%
O=S1(=O)c2ccccc2N(Cc2ccc(F)cc2)c2ccccc21	3.2%
COc1cc(Cl)c(C)cc1NC(=O)c1cnn(-c2ccc(F)cc2F)c1C1CCN(C(=O)OC(C)(C)C)CC1	12.5%
CCc1cccc(NC(=O)CCc2c(C)nc3c(c2C)c(=O)n(C)c(=O)n3C)c1	2.6%
CC1=C(C(=O)Nc2ccccc2)C(c2cccs2)n2nc(SCc3ccccc3)nc2N1 (stereo not drawn)	-23.1%
CC(C)c1ccc(NC(=O)CCCc2nc(-c3ccc(Cl)cc3)no2)cc1	-0.9%
CCOC(=O)c1cc(-c2ccc(F)cc2)n(CC(=O)NC2CCCCCC2)c1C	0.4%
Cc1c(Cl)cccc1NC(=O)CSc1nc(=O)n(CCN2CCOCC2)c2c1CCC2	3.7%
O=C(Cc1ccccc1[N+](=O)[O-])Nc1ccc(S(=O)(=O)N2CCCC2)cc1	-2.7%
Cc1cc(-c2ccc(S(=O)(=O)Nc3ccc(Cl)cc3)cc2)on1	8.5%
CCOC(=O)c1ccc(NC(=O)c2oc3ccc4c(c3c2C)C(=O)CC(C)(CC)O4)cc1 (stereo not drawn)	-61.5%
CCOC(=O)c1sc2ccccc2c1S(=O)(=O)Nc1ccc(N(C)C)cc1	-11.5%
CCOC(=O)C1CCN(C(=O)c2ccc(-n3ccc4ccccc43)s2)CC1	-51.8%
Cn1c(=O)n(-c2ccc3c(c2)OCO3)c2nc(-c3ccccc3)nc(C(N)=O)c21	-0.3%
COc1ccccc1NC(=O)c1sc2nc(C)c(C(=O)Nc3ccc(C)cc3C)c(-c3ccccc3Cl)c2c1N	-2.7%
COCCNC(=O)CCSc1nc(-c2ccc3c(c2)OCO3)cc(C(F)(F)F)n1	0.3%
CCOC(=O)c1cc(OC(=O)c2ccccc2Cl)n(-c2ccccc2)n1	2.0%
CCCOCc1cc(CN2CCN(c3cccc(Cl)c3)CC2)c(O)c2ncccc12	u
Cc1ccc(N2CC(NC(=O)c3ccccc3C(F)(F)F)CC2=O)cc1C (stereo not drawn)	-5.9%
Cc1ccc(OCCn2c(CNc3cccc(C)c3)nc3ccccc32)cc1	-15.1%
COc1cccc(CNC(=O)c2c(O)nc3ccccn3c2=O)c1	-0.3%
Cc1cc2c(cc3c(SCc4cccc(F)c4)nnc(C)n32)o1	-51.8%

The list is partial (hit frequency here may not be typical).
